Screening data: PubChem BioAssay, Johns Hopkins Ion Channel Center
KCNQ2 inh: KCNQ2 channel blockers in CHO-K1 cells – cell-based, FluxOR thallium flux, B-score, primary screen (AID 2156); O88943; 20 min; hits give low values; only compounds with negative scores are shown here; some inactives read as strong as hits; B-score at 10 µM; 310,000 tested, 1.1% active;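 active means fluorescence ratio B-score at most minus 3 library SDs, with starting brightness B-score within 2 library SDs, cut at about -5.5 in these data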
Target sequence (O88943 whole entry, looked up): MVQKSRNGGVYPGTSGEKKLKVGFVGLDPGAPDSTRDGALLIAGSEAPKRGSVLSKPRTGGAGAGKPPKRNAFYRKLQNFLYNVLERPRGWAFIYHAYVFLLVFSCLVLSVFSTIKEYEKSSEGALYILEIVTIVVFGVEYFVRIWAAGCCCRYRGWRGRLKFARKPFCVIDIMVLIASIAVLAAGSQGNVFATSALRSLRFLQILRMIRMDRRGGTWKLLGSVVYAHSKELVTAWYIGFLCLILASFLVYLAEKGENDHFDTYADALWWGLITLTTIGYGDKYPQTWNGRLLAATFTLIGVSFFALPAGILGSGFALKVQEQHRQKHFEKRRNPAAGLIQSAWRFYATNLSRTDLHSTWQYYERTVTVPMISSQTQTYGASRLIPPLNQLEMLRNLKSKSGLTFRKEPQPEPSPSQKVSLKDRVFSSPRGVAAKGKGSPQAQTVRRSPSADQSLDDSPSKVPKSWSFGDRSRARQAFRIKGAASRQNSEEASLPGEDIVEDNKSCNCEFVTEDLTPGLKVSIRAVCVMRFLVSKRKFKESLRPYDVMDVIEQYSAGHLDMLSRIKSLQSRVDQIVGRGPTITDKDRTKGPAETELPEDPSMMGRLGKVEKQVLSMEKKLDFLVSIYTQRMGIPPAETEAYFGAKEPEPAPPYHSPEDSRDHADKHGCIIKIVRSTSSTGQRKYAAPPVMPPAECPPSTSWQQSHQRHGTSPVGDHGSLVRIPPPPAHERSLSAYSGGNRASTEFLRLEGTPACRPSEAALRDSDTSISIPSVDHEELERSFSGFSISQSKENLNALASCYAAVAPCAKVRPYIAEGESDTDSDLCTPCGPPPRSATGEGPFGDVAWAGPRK
KCNQ2 inh baseline: further read-out of KCNQ2 inh, marked with its call; B-score; measured here: initial fluorescence intensity artifact check;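 brightness before thallium and not channel activity; 0 = typical well and far values either way flag optical interference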
* hit, by the source's call; i = inactive. The list is partial, so the mix of outcomes need not match the whole.

canonical_smiles	KCNQ2 inh	KCNQ2 inh baseline
Oc1ccc(/C=N/N2CCN(C3c4ccccc4-c4ccccc43)CC2)c(O)c1	i	1.9
COc1cccc2cc(C(=O)N3CCCCCCC3)c(=O)oc12	i	2
COc1ccccc1CNCc1ccc(OC)c(OC)c1OC	i	1.2
Cc1ccc(C)c2nc3sc(C(=O)O)cc3cc12	i	1.7
CCOc1cc(S(=O)(=O)NCCCn2ccnc2)ccc1Cl	i	1.5
O=C(O)C1C2C=CC(C2)C1C(=O)Nc1cccc(C(=O)N2CCCCC2)c1 (configuration not stated)	i	0.72
CC12CCC(C(=O)N3CCOCC3)([C@H](Br)C1=O)C2(C)C (some centres not stated)	i	0.09
CCOc1ccc(C2c3cc(OC)c(OC)cc3CC(=O)N2c2ccccc2)cc1 (configuration not stated)	i	-0.55
Cc1cc(C)nc(SCC(=O)c2c(N)n(C)c(=O)n(C)c2=O)n1	i	-2.5
Fc1ccc(CNc2ncccn2)cc1	i	-0.54
CC1=Nc2ccccc2/C1=C\c1nc(-c2ccc(C(F)(F)F)cc2)oc1O	i	0.98
O=C(NCCc1ccc(F)cc1)c1ccc(NS(=O)(=O)c2ccc3[nH]c(=O)[nH]c3c2)cc1	i	0.6
Cc1ccc(NC(=S)NNC(=O)c2ccc(N3CCOCC3)c([N+](=O)[O-])c2)cc1C	i	-0.79
Cc1ccc(-n2nc3c(N4CCC(C(=O)N5CCC(C(N)=O)CC5)CC4)nnc(C)c3c2C)cc1	i	-0.14
COC(=O)c1cc2c(C)nn(-c3ccccc3)c2s1	i	-0.57
CCc1ccc(CN/C=C/C(=O)c2ccc(Br)cc2)cc1	i	-0.02
C/C(=N/OC(=O)C1CC12CCC2)c1ccc(Br)cc1 (configuration not stated)	i	0.26
Cc1ccc(CSCCNC(=O)c2ccc(N(C)S(=O)(=O)c3ccccc3)cc2)cc1	i	1.2
Cc1ccc2nc(SCC(=O)Nc3ccc(F)c([N+](=O)[O-])c3)[nH]c2c1	i	0.67
CC(=O)c1sc2nsc(SCCN3CCCCC3)c2c1N	i	1.6
COc1cc(/C=C(\C#N)c2nc3ccccc3[nH]2)cc(OC)c1O	i	7.3
COC(=O)c1ccccc1NC(=O)CCNC(=O)Cn1cnc2ccccc2c1=O	i	-0.6
Cc1cc(=O)[nH]c2c3ccccc3nn12	i	0.45
CCC(C)CCCCNC1=NCCS1 (configuration not stated)	i	0.75
O=C(CN1C(=O)c2ccccc2C1=O)NCC1CCCO1 (configuration not stated)	i	-1.8
O=C(Nc1cc(=O)[nH]c2nc(-c3ccc(Cl)cc3)nn12)c1ccccc1	i	0.75
COc1ccc(CN2CCN(c3nc4ccccc4s3)CC2)cc1	i	0.05
C1CN(c2nc3nonc3nc2N2C[C@H]3CC[C@H]2C3)CCS1	i	0.12
CC1(C)CC(=O)C(N=Nc2ccc(-c3ccccc3)cc2)=C(O)C1	i	0.22
CCOc1ccc(NCC2CCOC(C)(C)C2)cc1 (configuration not stated)	i	1.1
CSc1nnc(SCC(=O)N(C)c2c(N)n(Cc3ccccc3)c(=O)[nH]c2=O)s1	i	-1.7
CC(C(=O)Nc1ncccn1)(c1ccccc1)c1ccccc1	i	1.4
Cc1ccc(-n2ncc3c2CC(C)(C)CC3NC(=O)CN2CCCC2=O)cc1 (configuration not stated)	i	-0.4
Cc1ccc(SCc2c(C(=O)N/N=C/c3cccnc3)nnn2-c2nonc2N)cc1	i	0.47
CN(C)c1ccnc(Oc2ccc(C(C)(C)C)cc2)c1C#N	i	0.03
O=C(CN(C1CCCCC1)S(=O)(=O)c1ccc(Br)cc1)NCc1cccnc1	i	-1.1
O=C(CCc1c[nH]c2ccccc12)NC(Cc1c[nH]c2ccccc12)C(=O)O (configuration not stated)	i	0.12
O=C(NC1CCCCCC1)C(=O)NC1CC1	i	-1.6
COc1cc(CCCN2C(=S)NC[C@@H]2CCCCN)cc(OC)c1OC	i	-0.95
CCOC(=O)c1cccnc1SCC(=O)N(CC)c1cccc(C)c1	i	0.49
COc1ccc2nc(NC(=O)C34CC5CC(CC(NC(C)=O)(C5)C3)C4)sc2c1	i	-0.16
CC(C)(C)NC(=O)CSc1nncn1NCc1ccccc1	i	-0.06
CCOC(=O)c1ccc(N/C=C/C(=O)C(C)(C)C)cc1	i	-0.04
COCCNC(=O)CN(C(=O)c1ccc(N2CCCC2)nc1)c1ccc(Cl)cc1	i	-2.3
Cn1c(C(=O)NCc2cccnc2)cc2sc(Cl)cc21	i	2
CCCc1nnc(NC(=O)CS(=O)(=O)c2ccccc2)s1	i	-0.07
Cc1ccccc1CN1C(=O)c2ccccc2S(=O)c2ccc(C(=O)NCCCN3CCOCC3)cc21 (configuration not stated)	i	1.1
COc1cc2c3nnc(-c4ccccc4)c-3cn(Cc3ccccc3F)c2cc1OC	i	-1.3

Copied from the list.
Under KCNQ2 inh baseline, `COc1ccc2nc(NC(=O)C34CC5CC(CC(NC(C)=O)(C5)C3)C4)sc2c1` shows -0.16
Under KCNQ2 inh baseline, `CC(C)(C)NC(=O)CSc1nncn1NCc1ccccc1` shows -0.06
Under KCNQ2 inh baseline, `Cn1c(C(=O)NCc2cccnc2)cc2sc(Cl)cc21` shows 2
Under KCNQ2 inh baseline, `COc1cc(CCCN2C(=S)NC[C@@H]2CCCCN)cc(OC)c1OC` shows -0.95

The listing picks up, starting two compounds before the break.
canonical_smiles	KCNQ2 inh	KCNQ2 inh baseline
Cc1ccccc1CN1C(=O)c2ccccc2S(=O)c2ccc(C(=O)NCCCN3CCOCC3)cc21 (configuration not stated)	i	1.1
COc1cc2c3nnc(-c4ccccc4)c-3cn(Cc3ccccc3F)c2cc1OC	i	-1.3
CC1(c2ccccc2)NC(=O)N(CC(=O)Nc2ccccc2C(=O)NC2CC2)C1=O (configuration not stated)	i	0.17
Oc1ccccc1NCC(O)Cn1ccc2ccccc21 (configuration not stated)	i	-0.91
COC(=O)c1sccc1NC(=O)c1cc(-c2ccc(C)cc2C)nc2ccccc12	i	-0.09
CCCC(=O)Nc1sc(C)c(C)c1C(=O)Nc1cccc(C)c1	i	-0.77
COc1ccc(C(C(=O)NC2CCCC2)N(C(=O)c2csnn2)C2CCCC2)cc1 (configuration not stated)	i	-0.75
COc1ccc(CN(Cc2ccc(OC)cc2)C(=O)c2cccs2)cc1	i	1.7
CN1C(=O)C(C)(C)c2cc(S(=O)(=O)N3CCN(c4ccccc4)CC3)ccc21	i	1.1
Cc1ccc(C2CC(c3cccs3)=NN2C(=O)CSc2nc3ccccc3o2)cc1 (configuration not stated)	i	-0.08
O=S1(=O)CC/C(=N\Nc2ccc(F)cc2)c2ccsc21	i	-0.2
COc1cc2c(C(=O)N3CCN(Cc4ccc5c(c4)OCO5)CC3)cn(C)c(=O)c2cc1OC	i	0.41
O=C1NC(=Nc2ccccc2)S/C1=C\C=C\c1ccco1	i	0.76
COc1ccc(N/C=C\C(=O)c2ccc3c(c2)OCO3)cc1	i	-0.02
CNc1ccccc1C(=O)OCC(=O)N1CCN(c2ccc(OC)cc2)CC1	i	-0.19
CCOC(=O)N1CCN(CC(O)COCc2cc(OC)c(OC)c(OC)c2)CC1 (configuration not stated)	i	0.35
CCOC(=O)c1cc(-c2ccc3c(c2)OCO3)nc2onc(C)c12	i	0.03
O=S(=O)(Cc1ccccc1)N1CCN(c2ncccn2)CC1	i	-0.54
Fc1cccc(Cl)c1/C=C/c1cnc2ccccc2n1	i	-1.8
O=C(Nc1ccccc1C(=O)NC1CCCC1)NC1CCCC1	i	2.2
O=C(c1cc(-c2ccccc2)nc2ccccc12)N1CCOCC1	i	-2
CNC(=S)N(Cc1ccc2c(c1)OCO2)C1CC(=O)N(c2ccc(F)cc2)C1=O (configuration not stated)	i	-0.34
O=C(CNC(=S)N(Cc1ccccc1)Cc1cccnc1)NC1CC1	i	1.1
O=C(CSc1nc2ccccc2c(=O)n1CC1CCCO1)NCCc1ccccc1 (configuration not stated)	i	-0.66
O=C(CCC(=O)N1CCN(S(=O)(=O)c2ccc3ccccc3c2)CC1)NCC(F)(F)F	i	1.3
CC1(C)CC(=O)N(CC(=O)O)c2ccccc2S1(=O)=O	i	0.89
Cc1ccc2nc(SCC(=O)O)nc(C)c2c1	i	0.71
CCCCCCC(=O)N1C/C=C\C(c2ccc(OC)cc2)N(Cc2ccc(F)cc2)C(=O)[C@H]1Cc1ccccc1 (some centres not stated)	i	-1.3
CC(C)C(=O)N1CC(=O)Nc2ccc(F)cc2C1c1ccc(F)cc1 (configuration not stated)	i	-0.4
C=CCOc1ccc(/C=C/C(=O)OCC(=O)N2CCCc3ccccc32)cc1	i	0.26
COc1ccc(-c2csc3ncnc(N4CCN(S(=O)(=O)c5cccs5)CC4)c23)cc1	i	-0.97
O=C(c1ccncc1)N(Cc1ccccc1)Cc1nc2ccccc2c(=O)[nH]1	i	-1.9
CN(C)CCN(C(=O)c1ccc(N2C(=O)CCC2=O)cc1)c1nc2cc3c(cc2s1)OCCO3	i	1.1
O=[N+]([O-])c1ccc(Nc2nc(NCCO)nc(N3CCCC3)n2)cc1	i	-1.5
N#Cc1ccc(NC(=S)NC(=O)CCc2ccc(S(=O)(=O)N3CCOCC3)cc2)cc1	i	2.5
CCOC(=O)CN1C(c2ccc(O)cc2)Nc2ccc(Br)cc2C1c1ccccc1 (configuration not stated)	i	0.64
Cc1ccccc1NC(=O)C(Cc1ccccc1)n1cccc1 (configuration not stated)	i	-0.84
c1csc(-c2noc(COc3ccc4c(c3)CCCC4)n2)c1	-6*	-0.02*

Five records drawn at random from those above, as already listed:
canonical_smiles	KCNQ2 inh	KCNQ2 inh baseline
CC(C)C(=O)N1CC(=O)Nc2ccc(F)cc2C1c1ccc(F)cc1 (configuration not stated)	i	-0.4
CCOC(=O)N1CCN(CC(O)COCc2cc(OC)c(OC)c(OC)c2)CC1 (configuration not stated)	i	0.35
N#Cc1ccc(NC(=S)NC(=O)CCc2ccc(S(=O)(=O)N3CCOCC3)cc2)cc1	i	2.5
Cc1ccccc1CN1C(=O)c2ccccc2S(=O)c2ccc(C(=O)NCCCN3CCOCC3)cc21 (configuration not stated)	i	1.1
O=C(Nc1cc(=O)[nH]c2nc(-c3ccc(Cl)cc3)nn12)c1ccccc1	i	0.75

(listing goes on)
canonical_smiles	KCNQ2 inh	KCNQ2 inh baseline
COc1ccc(NC(=O)CSc2ncnc3[nH]ncc23)cc1	i	0.04
S=C(N/N=C/c1ccc(Br)cc1)N1CCCCC1	i	-0.87
CN1CCN(C(=O)/C(=C/c2ccccc2)c2ccccc2)CC1	i	0.26
Cc1ccc(CSc2nnc(-c3ccncc3)n2CC2CCCO2)cc1 (configuration not stated)	i	1.7
O=C(Nc1ccc(F)cc1F)c1ccc2nc(N3CCOCC3)sc2c1	i	-1.2
CCCNc1c(NS(=O)(=O)c2ccc3c(c2)CCCC3)c(=O)oc2ccccc12	i	-1.2
COc1cccc(SCc2noc(C(=O)NCCC(C)C)c2C(=O)NCCC(C)C)c1	i	-0.08
O=C(CSc1nc2ccccc2o1)NCc1ccc2c(c1)OCO2	i	-0.91
CCCCN(C)C(=O)CCC(=O)NNc1nc2ccccc2c2nc(C)nn12	i	-0.7
COCc1c(Br)c(C)[nH]c(=O)c1C#N	i	-0.4
O=C(CNC(=O)C1CCCCC1)Nc1ccccc1Cl	i	0.29
CCCN1CCN(CCCNC(=O)Cn2nc(-c3ccc(Cl)cc3)ccc2=O)CC1	i	1.9
CN(C)c1ccc(/C=N/NC(=O)c2nnn(-c3nonc3N)c2COc2ccc(F)cc2)cc1	i	-0.24
O=C(CSc1nc(O)cc(=O)[nH]1)C1CC1	i	-1.2
c1ccc(Cn2nnc(CNc3ccccc3)c2-c2c(CNc3ccccc3)nnn2Cc2ccccc2)cc1	i	-0.93
O=C(Nc1ccc(N2CCN(C(=O)c3ccccc3)CC2)cc1)c1cc([N+](=O)[O-])ccc1N1CCOCC1	i	-2.3
CN(c1ccc(Cl)cc1)c1cc(=O)n(C)c2ccccc12	i	0.02
CC(C)(C)OC(=O)N/N=C/c1cn(-c2ccccc2)nc1-c1cccnc1	i	-1.8
COc1ccc(S(=O)(=O)NCC(c2ccc3c(c2)OCO3)N2CCN(C)CC2)cc1OC (configuration not stated)	i	-0.65
Cc1ccc(O)c(C(=O)c2cnc3onc(-c4ccc(F)cc4)c3c2)c1	i	0.23
O=C(c1ccc(S(=O)(=O)Cc2cc(F)ccc2F)c([N+](=O)[O-])c1)N1CCCC1	i	-2
CC1CN(C(=O)c2ccc(COc3ccc4ccccc4c3)o2)CC(C)O1 (configuration not stated)	-10*	0.39*
O=C(NC(NC1CCS(=O)(=O)C1)C(=O)c1cccs1)c1ccccc1 (configuration not stated)	i	1.3
Cc1ccc2nc(-c3ccccc3O)c(Nc3ccc4c(c3)OCCO4)n2c1	i	1.4
O=C(Nc1nc(-c2ccc(F)cc2)cs1)c1cnccn1	i	0.08
c1coc(CNc2c3c(nc4ncnn24)CCC3)c1	i	0.85
CCC(=O)NC(c1ccc(C)cc1)c1ccc2cccnc2c1O (configuration not stated)	i	2.4
CCCCN(C(=O)COc1ccc(C)cc1OC)c1c(N)n(CCC)c(=O)[nH]c1=O	i	-0.31
Nc1nc(-c2ccccn2)nc(N)c1Cc1ccccc1F	i	-0.2
COCC(=O)N1CCC(n2nccc2NC(=O)c2ccccc2OC)CC1	i	0.51
Cc1cc(=O)oc2c(C)c(OC(C)C(=O)NCCN3CCOCC3)ccc12 (configuration not stated)	i	0.02
Nc1nnc(SCC(=O)Nc2sc3c(c2C(=O)c2ccccc2)CCCC3)s1	i	3
Cc1ccccc1Cn1c(=O)n(CC2CCC(C(=O)NCCc3ccccc3)CC2)c(=O)c2ccccc21 (configuration not stated)	i	0.86
Cc1ccc(/C=C2/Sc3ccc(C(=O)N4CCN(C)CC4)cc3NC2=O)cc1	i	-0.87
Cc1cccc(NC(=S)NCCc2ccc(Cl)cc2)c1C	i	0.66
CCCNC(=O)c1cc(-c2ccc(OC)cc2)n(CCCOC)c1C	i	3
